# Screening results from PubChem.
# BJeLR lethal = BJeLR cell viability loss. AID 1554. inhibition, % (concentration not given with the values). hit rate 0.17% among 300,000. BJeLR (HRASV12) viability, CellTiter-Glo ATP luminescence, 48 h; reference of the scale not given here;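 active = replicate mean above 50%; inconclusive = above 50% but judged a plate artefact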;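 also: 50 nL library stock added to about 25 µL; numbers are from one replicate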
# PrP UTR inh = suppresses PrP 5' UTR mRNA reporter expression; cell-based PrP 5' UTR mRNA reporter, plate reader; inhibition, % (test concentration not listed); hit rate 0.35% among 340,000; AID 488862;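 active = every replicate at 50% or more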;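 also: 0 = median of the neutral control wells; tested in H4 reporter cells; numbers are from one replicate; inactives centre near -14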
# Autofluor counter = compound fluorescence in toxin protease inhibitor counterscreen | fluorescence intensity (test concentration not listed) | hit rate 3.1% among 360,000 | compound autofluorescence counterscreen, microsphere flow cytometry; stronger effect = higher value;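 active = at least 3 SD above the mean of all compounds, about 16000 in these data; inconclusive = too few beads counted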;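 also: 100 nL of 1 mM stock went into each well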
# Sa RN4220 lethal = S. aureus RN4220 growth inhibition. inhibition, % (concentration not given with the values). AID 1259311. OD600, 16 h. hit rate 0.33% among 330,000;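 active = z-score of -3 or lower and OD600 up to 0.18 on both plates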;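 also: plate controls were untreated cells for no effect and reference antibiotic for full effect; stock transfer was 100 nL into about 80 µL; one replicate is shown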
# Mtb hypoxia rep = Mtb hypoxia fluorescent reporter inhibition; M. tuberculosis hypoxia-regulated fluorescent reporter, fluorescence; fluorescence inhibition, % (concentration not given with the values); hit rate 0.1% among 300,000;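 active = 35 to 45% if threefold the growth effect, above 45% if 1.5-fold the growth effect; inactive = the rest, general growth blockers included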;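 also: wells of about 50 µL received 100 nL stock; 0% = vehicle wells and 100% = reference inhibitor wells; whole bacteria with a GFP reporter of the hypoxia response; strong numbers were not always called active; many hits fall short of the cut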
# ugtP null kill = kills S. aureus RN4220 lacking UgtP; S. aureus RN4220 ugtP deletion, OD600 growth, 16 h; some inactives read as strong as hits; growth inhibition, % (concentration not given with the values); AID 1259309; hit rate 0.54% among 330,000;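 active = z-score under -3 and OD600 up to 0.15 on both plates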;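 also: plate controls were untreated wells for no effect and antibiotic for full effect; wells of about 80 µL received 100 nL stock; the first replicate is given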
# Mtb hypoxia rep growth = recorded beside Mtb hypoxia rep, whose call it bears; growth inhibition, %; measured here: M. tuberculosis growth (absorbance);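 0% = vehicle and 100% = reference antibiotic; read after six days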
# Numbers without * were called inactive; ? = inconclusive; nt = no result given; & = joins results of further samples.
SMILES,BJeLR lethal,PrP UTR inh,Autofluor counter,Sa RN4220 lethal,Mtb hypoxia rep,Mtb hypoxia rep growth,ugtP null kill
CS(=O)(=O)c1cc([N+](=O)[O-])c(Sc2nc3ccccc3[nH]2)c([N+](=O)[O-])c1,3,-37,15764,3.5,6,4,-16
Cn1ncc(Cl)c1C(=O)N1CCc2ccccc21,0,-7,10470,-4.2,2,3,-10
O=C1N/C(=N\N=C\c2cccs2)SC1Cc1cccc(Cl)c1Cl (stereo not drawn),8,-35,2146,nt,nt,nt,nt
COc1ccc(OC)c(CN2CCN(S(=O)(=O)c3ccc(NC(C)=O)cc3)CC2)c1,0,-5,4209,-1.0,8,6,8
Cc1ccc(N(Cc2ccccc2)C(=O)c2ccc(Cl)c(S(=O)(=O)N3CCOCC3)c2)cc1,-6,-91,5974,3.8,-3,-1,-3
Cc1ccc(CN2CCN(N=C/C(Br)=C/c3ccccc3)CC2)cc1,nt,nt,nt,-7.5,3,3,40
CC(=O)Nc1ccc(S(=O)(=O)N2CCN(c3cnn(C)c(=O)c3Cl)CC2)cc1,-2,-8,4732,3.5,-11,-14,-2
Cc1cc(C)c(C(=O)CSc2nc(C)cc(C)c2C(N)=O)c(C)c1,-9,-40,1858,8.6,14,14,1
O=C(O)C1CC=CCC1C(=O)NCCc1ccccc1 (stereo not drawn),3,-7,3469,2.6,4,-1,1
CCOC(=O)CSc1nnc(-c2ccco2)n1C,10,-12,19743*,2.6,14,8,0
CCc1nnc(NC(=O)CCC(=O)NC2CCCC2)s1,2,-9,5217,2.8,5,2,2
Cc1cc(C)c(C)c(S(=O)(=O)N2CCC(C(=O)N3CC(C)CC(C)C3)CC2)c1C (stereo not drawn),-6,-9,4120,1.3,-5,-3,-5
CN(C)c1ccc(C2C3=C(CCCC3=O)OC3=C2C(=O)CCC3)cc1,7,3,3292,2.2,14,13,-8
O=C(Cc1ccccc1)NCC(=O)N1CCc2ccccc2C1,-6,-35,3901,1.3,1,-3,7
COc1ccc(-c2nc3ccccc3c(=O)n2NC(=S)N(C)C)cc1,-18,-10,10465,8.1,3,1,7
CCc1ccc(-c2ccc(C(=O)O)c(C)n2)cc1,1,-10,2439,nt,nt,nt,nt
O=C(COc1ccc2c(c1)C(=O)CC1(CCCCC1)O2)NCc1ccccc1,-7,-9,3914,-4.4,7,7,-4
COc1ccc(NC(=S)N(Cc2cccc(Br)c2)CC2CCC(C(=O)O)CC2)cc1 (stereo not drawn),1,-21,3534,-0.4,8,8,17
OCCC1CN(Cc2ccc(F)cc2)CCN1CCCc1ccccc1 (stereo not drawn),5,-17,3779,1.6,-11,2,1
CCOC(=O)CCNC(=O)Nc1ccc2nc(C)n(Cc3ccccc3Cl)c(=O)c2c1,0,-21,9114,0.8,13,1,5
Cc1cccc(C(=O)NCCN2CCCC2)c1,4,-34,20070*,3.9,3,11,-8
CCOc1ccccc1N1CCN(C(=O)CNC(=O)c2sc3ccccc3c2Cl)CC1,18,-15,5634,1.2,-8,-2,-16
O=C(c1ccco1)N1CCN(C2CC(=O)N(c3ccc4c(c3)OCO4)C2=O)CC1 (stereo not drawn),-11,-18,22383*,0.4,9,2,-3
Nc1ccc(-n2ccnc2)cc1,1,-50,2095,0.3,nt,nt,4
O=C(COC(=O)c1ccc(F)c(S(=O)(=O)N2CCOCC2)c1)NCc1ccccc1,nt,-16,3499,3.8,15,8,-5
O=C(CSc1nc(O)cc(=O)n1C1CCCC1)Nc1cccc(Cl)c1Cl,4,2,4106,1.6,-10,2,-1
CCOc1ccc(-c2c(C(=O)N/N=C(\C)c3ccco3)nnn2-c2nonc2N)cc1,-3,-6,4550,nt,nt,nt,nt
Cc1ccc(C(=O)N/C(=C/c2ccc(-c3cccc([N+](=O)[O-])c3)o2)C(=O)NCCCN(C)C)cc1,-1,-17,4871,-0.8,7,9,-6
Cc1cnc(C(=O)OCC(=O)Nc2ccc(Cl)cn2)cn1,-7,-25,4643,1.6,-2,0,9
COC(=O)N1C(=O)[C@](c2ccsc2)(C(C)C)N1C(=O)OC,-1,-8,3480,2.8,13,9,-6
CC(NC(=O)CCc1nnc(-c2ccc(-c3ccccc3)cc2)o1)c1nc2ccccc2[nH]1 (stereo not drawn),3,3,4997,-1.0,12,14,-10
COC(=O)c1cc(S(=O)(=O)N(C)C2CCCCC2)oc1C,-22,nt,6124,7.3,5,5,12
O=C(CCc1c[nH]c2ccccc12)N1CCN(c2ccc(O)cc2)CC1,-9,-47,4507,3.9,9,-1,0
CCOc1ccc(C(=O)NCC(=O)Nc2cc(C)ccn2)cc1OCC,nt,-25,4110,3.7,8,0,0
Cc1ccc(SC[C@H](c2ccccc2)N2CCN(CC(C)C)CCC2=O)cc1,-16,-23,4609,nt,nt,nt,nt
C=CCn1c(SCC(=O)NCc2ccc3c(c2)OCO3)nc2scc(-c3ccccc3)c2c1=O,3,-24,2700,-3.0,nt,nt,5
Cc1cc(/C=C(\C#N)C(=O)NCc2ccco2)c(C)n1-c1ccc(C(=O)O)cc1,0,-15,4344,7.9,-3,-2,20
O=C(CN1C(=O)c2cccc3cccc1c23)Nc1ccc(S(=O)(=O)N2CCOCC2)cc1,-12,-19,2669,-8.0,nt,nt,2
COc1cccc(/C=N/c2nc3ccccc3n2C)c1O,-4,3,3862,nt,nt,nt,nt
N#CCCn1cc(C(=O)Nc2ccc(C(=O)O)cc2)c(-c2ccc([N+](=O)[O-])cc2)n1,4,3,2124,2.1,4,9,4
O=C(CSc1nc(=O)n(Cc2ccccn2)c2c1CCC2)Nc1ccc(F)cc1F,6,-32,5853,1.8,10,1,8
CCCCc1ncc(CN2CCC(n3nccc3NC(=O)C(OC)c3ccccc3)CC2)[nH]1 (stereo not drawn),-10,-32,5149,1.9,10,7,3
COc1ccc(N(C)S(=O)(=O)c2ccc(Cl)c(C(=O)NCCc3ccc(Cl)cc3)c2)cc1,2,-14,3258,-12,0,10,-3
Cc1cc(F)ccc1S(=O)(=O)N1CCCCC1CCNC(=O)C(=O)NCc1ccccn1 (stereo not drawn),1,-6,4504,5.1,2,-3,10
NC(=O)NC(=O)Nc1ccccc1Cl,0,-9,3688,5.4,13,6,1
NC(=O)C1CCN(C(=O)COc2ccc3c4c(c(=O)oc3c2)CCCC4)CC1,-5,-13,6302,0.9,nt,nt,-1
O=C(c1ccccc1F)N1CCN(Cc2ccccc2F)CC1,-4,-5,3378,-11,15,13,4
Cc1cc(C)cc(N2Cc3ccccc3C2)c1,9,9,4467,-10,4,8,-4
COc1ccc(CCn2cc(C#N)c(=O)[nH]c2=O)cc1OC,-1,-29,4078,3.3,0,2,4
CC1(C)CC(=O)C(C#N)=C(NCCCO)C1,3,0,11452,3.3,-2,3,0
# Next section
SMILES,BJeLR lethal,PrP UTR inh,Autofluor counter,Sa RN4220 lethal,Mtb hypoxia rep,Mtb hypoxia rep growth,ugtP null kill
COc1cccc(/C=C2\SC(N3CCCC(C)C3)=NC2=O)c1OC (stereo not drawn),-19,-40,3591,1.9,-7,9,1
Cc1ccc2c(Cl)cc(Cl)c(OCC(=O)Nc3cc(S(=O)(=O)N(C)C)ccc3C)c2n1,10,-7,2526,-1.6,2,2,-12
S=C(NCc1ccco1)Nc1ccc(Cl)c(Cl)c1,-2,-11,11669,-5.7,9,14,-19
CCN(CC)S(=O)(=O)c1ccc2oc(C(=O)NCCN3CCOCC3)c(C)c2c1,-16,-18,5315,7.8,14,10,5
NC(=O)Nc1ccc(C(=O)OCC(=O)NC2CCCc3ccccc32)cc1 (stereo not drawn),nt,-5,3576,-3.9,1,8,-2
O=C(CC1C(=O)NCCN1Cc1ccccc1C(F)(F)F)NC1CCCCCC1 (stereo not drawn),2,0,4574,-0.9,-2,-6,0
COc1ccc(NC(=S)N(CCCN2CCOCC2)Cc2ccco2)cc1,-2,-8,6426,0.0,6,2,3
N#Cc1nc(-c2cccs2)oc1NCC1CCCO1 (stereo not drawn),-2,-12,5528,-0.3,-3,1,1
CCn1c(=O)c2sccc2n(Cc2ccccc2)c1=O,7,8,3742,3.9,19,8,13
CN(C)C(=O)c1ccc(-c2nnc(NCc3ccccc3)c3ccccc23)cc1,1,-27,2563,-0.1,11,9,0
O=C(/C=C/c1ccccc1)Nc1ccc(NC(=O)c2cccs2)cc1,-4,-22,4297,6.7,-4,5,4
CCOC(=O)N1CCC(n2c(SCC(=O)Nc3ccccc3OC)nc3ccccc3c2=O)CC1,2,-22,9636,0.9,3,12,-3
Fc1ccccc1OCCSc1nc2ccccc2o1,-6,-31,4701,3.0,nt,nt,15
CCn1ncc(CN2CCC(Oc3ccc(C(=O)N4CCCC4)cc3)CC2)c1C,13,-12,5411,4.9,8,11,6
COCCNC(=S)NN=C(C)c1ccc(Cl)c(Cl)c1,nt,nt,nt,3.6,8,6,-1
Cc1ccnn1CCC(=O)N1CCCC(Nc2ccc(F)c(F)c2)C1 (stereo not drawn),6,-25,4293,-1.5,-8,2,-5
COc1ccc(-c2noc(-c3ccccc3C(=O)NCC3CCCO3)n2)cc1 (stereo not drawn),-13,-34,6799,0.9,6,2,6
CC(C)C(CO)NC(=O)c1ccc2c3n(nc2c1)-c1ccc(Cl)cc1CO3 (stereo not drawn),nt,nt,nt,5.0,4,12,7
ClCC1=Nc2ccccc2Cc2ccccc21,-10,nt,6440,2.8,3,0,8
CCCCOc1ccc(S(=O)(=O)NNC(=O)C2Cc3c(ccc4ccccc34)O2)cc1 (stereo not drawn),-2,-11,9837,-2.0,18,7,7

# Reformatted with values under each structure: entries from further up.
# Screens in order: BJeLR lethal, PrP UTR inh, Autofluor counter, Sa RN4220 lethal, Mtb hypoxia rep, Mtb hypoxia rep growth, ugtP null kill
> Fc1ccccc1OCCSc1nc2ccccc2o1
 : -6, -31, 4701, 3.0, nt, nt, 15
> CCn1ncc(CN2CCC(Oc3ccc(C(=O)N4CCCC4)cc3)CC2)c1C
 : 13, -12, 5411, 4.9, 8, 11, 6

# 3 records picked at random from the list so far, as already listed:
SMILES,BJeLR lethal,PrP UTR inh,Autofluor counter,Sa RN4220 lethal,Mtb hypoxia rep,Mtb hypoxia rep growth,ugtP null kill
O=C(CSc1nc(=O)n(Cc2ccccn2)c2c1CCC2)Nc1ccc(F)cc1F,6,-32,5853,1.8,10,1,8
Nc1ccc(-n2ccnc2)cc1,1,-50,2095,0.3,nt,nt,4
COC(=O)c1cc(S(=O)(=O)N(C)C2CCCCC2)oc1C,-22,nt,6124,7.3,5,5,12

# (cont.)
SMILES,BJeLR lethal,PrP UTR inh,Autofluor counter,Sa RN4220 lethal,Mtb hypoxia rep,Mtb hypoxia rep growth,ugtP null kill
C[C@H](NC(=O)C1CCN(S(=O)(=O)c2ccccc2)CC1)C(=O)NCc1ccc(Cl)cc1Cl,3,1,4510,0.5,10,6,5
Cc1cccc(NC(=O)CCN2C(=O)c3cccc([N+](=O)[O-])c3C2=O)c1,-4,-21,3893,1.5,17,6,15
COc1ccc(-n2c(/C=C/c3cccc(F)c3)nc3ccccc3c2=O)c(OC)c1,9,-11,3950,-2.1,-10,1,17
COc1ccc(N(CC(=O)N2CCCCCC2)S(=O)(=O)c2ccc(OC)c(OC)c2)cc1,-2,-19,5171,6.5,9,3,5
CCOc1ccc(-n2c(SCC(N)=O)nc3c([nH]c4ccccc43)c2=O)cc1,11,-30,5895,6.8,1,6,5
O=C(CCC1CCCC1)NCCS(=O)(=O)N1CCN(c2ccccc2)CC1,14,-13,6691,-2.9,21,17,0
CCCc1ccc(C(=O)NNC(=O)c2ccc(Br)cc2)cc1,13,-15,2326,5.9,5,7,5
CC1CCCN(C(=O)C2CCN(S(=O)(=O)c3cccs3)CC2)C1 (stereo not drawn),nt,-22,?,3.2,-4,-5,11
Nc1ccc(S(=O)(=O)O)cn1,-5&-5&-5,-32&-15&-13,3473&4930&2079,2.1&2.4&9.3,8&15&-1,-10&5&7,7&5&3
COc1ccc2c(c1)CCc1c(C(=O)NCc3cccnc3)noc1-2,-1,-32,11522,5.0,0,1,8
COC(=O)C1=C(C(=O)OC)[C@@H]2N(C)c3ccccc3[C@@]23C[C@@H](C(=O)OC)N=C3N1,3,-20,3737,nt,nt,nt,nt
Cn1c(N)c(N2CCN(c3ccccc3)CC2)c(=O)[nH]c1=O,-1,-7,3473,3.1,8,-3,2
Cc1c(C(=O)OCc2nc3scc(-c4ccccc4)c3c(=O)[nH]2)cccc1[N+](=O)[O-],-14,-25,1979,-7.6,13,-3,-10
